Marburg entry inh: qHTS for inhibitors of binding or entry into cells for Marburg Virus. Marburg virus pseudotyped entry inhibition, cell reporter; control for the full effect not named in the record; about a third of the inactives were read at about 46 µM. Potency, µM (series often up to 37.8 µM), for the others: at the top dose activity change, negative = inhibition, actives largely listed as inhibitors. 300,000 compounds, 1.8% hits. AID 540276, 2011; active = well fitted inhibition curve with a large enough effect; inconclusive = small, poorly fitted or top-dose-only effect, or effect the other way; inactive = flat fitted curve, though single readings scatter; tested in HEK293 cells; about a fifth of its hits are not listed in these tables; further: on the % scale 0 is the no-effect control and ±100 the full control effect; luciferase read-out
NS1 function inh: qHTS Assay for Inhibitors of Influenza NS1 Protein Function. S. cerevisiae slowed by influenza A NS1, growth recovery by OD600. Potency, µM (series often up to 46.1 µM), inactives show at the top dose activity, positive = more growth. 270,000 compounds, 0.4% hits. AID 2326, 2010; further: actives are rising curves; nearly all actives have a fitted effect of over 50% in size
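Read-out: OD600 growth recovery of NS1-expressing budding yeast. Cells grown overnight at 30C in -URA glucose medium, washed, resuspended and diluted 1:100 in 2% galactose assay medium, pH 6.0. Same strain lacking NS1 served as positive control.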
Cruzain Triton: qHTS Assay for Promiscuous and Specific Inhibitors of Cruzain (with detergent) | purified cruzain, Z-FR-AMC fluorescence, 0.01% Triton | 200,000 compounds, 0.43% hits | Potency, µM, inactives show max response, negative = inhibition, most hits filed as inhibitors | Cruzipain (Trypanosoma cruzi), P25779 | AID 1478, 2009; active means well fitted curve in the direction sought with a large enough effect; inconclusive means small, poorly fitted or top-dose-only effect, or another doubt; inactive means no such curve, though single readings can be large; an effect the other way counts as inactive or inconclusive;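 further: plate controls were neutral wells for no effect and buffer without enzyme for full effect; nearly all actives have a fitted effect of over 40% in size; top concentration of the series not given in the record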
Target sequence (P25779 123-467 limits assumed): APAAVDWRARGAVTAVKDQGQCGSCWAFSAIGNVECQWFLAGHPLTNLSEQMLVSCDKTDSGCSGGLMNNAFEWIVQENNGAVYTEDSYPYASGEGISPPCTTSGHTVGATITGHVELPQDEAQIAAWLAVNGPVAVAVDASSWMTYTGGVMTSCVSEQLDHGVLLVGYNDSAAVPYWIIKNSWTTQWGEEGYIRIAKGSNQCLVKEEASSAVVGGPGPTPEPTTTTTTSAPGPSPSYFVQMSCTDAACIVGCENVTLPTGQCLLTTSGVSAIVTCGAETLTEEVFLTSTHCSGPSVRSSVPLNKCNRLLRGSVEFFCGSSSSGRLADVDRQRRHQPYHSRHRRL
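Detergent-containing run (0.01% Triton X-100) in acetate buffer pH 5.5 with 5 mM DTT: enzyme at 1.5 nM final, 15 min compound preincubation at room temperature, then 2 uM Z-FR-AMC substrate. Activity taken as 60 s fluorescence increase at 360/450 nm.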
SARS PLP yeast: qHTS of Yeast-based Assay for SARS-CoV PLP; S. cerevisiae expressing SARS-CoV PLpro, growth rescue; control for the full effect not named in the record; Potency, µM (titrated, usually from 32.9 µM), inactives show top-dose activity, positive = growth rescue; 330,000 compounds, 0.19% hits; AID 485353, 2010; further: 0% is about no effect; nearly all actives have a fitted effect of over 55% in size; growth read by luminescence after 48 h
Lassa entry inh: qHTS for Inhibitors of binding or entry into cells for Lassa Virus; AID 540256, 2011; Potency, µM (highest dose often 37.9 µM), inactives show top-dose activity change, negative = inhibition, hits mostly inhibitors; Lassa virus pseudotype entry inhibition, cell reporter; control for the full effect not named in the record; 300,000 compounds, 1.2% hits; active means well fitted inhibition curve with a large enough effect; inconclusive means small, poorly fitted or top-dose-only effect, or effect the other way; inactive means flat fitted curve, though single readings scatter; tested in HEK293 cells; further: on the % scale 0 is the no-effect control and ±100 the full control effect; nearly all actives have a fitted effect of over 50% in size; luciferase read-out
2A StopGo: High Throughput Screening for Foot and Mouth Disease Virus Antivirals; Potency, µM (series often up to 57.9 µM), for inactives: at the highest dose signal change, negative = less light; 410,000 compounds, 1.2% hits; AID 1159524, 2015; human cells with a luciferase reporter of 2A StopGo recoding; control for the full effect not named in the record; active = well fitted falling curve with a large enough effect; inconclusive = small, poorly fitted or top-dose-only effect; inactive = no such curve, though single readings can be large or run the other way; tested in HEK293T cells; further: on the % scale 0 is the no-effect control and ±100 the full control effect; nearly all actives have a fitted effect of over 45% in size; luciferase light after 4 h
Cruzain noTriton: qHTS Assay for Promiscuous and Specific Inhibitors of Cruzain (without detergent). AID 1476, 2009. Cruzipain (Trypanosoma cruzi), P25779. Potency, µM, without a hit: max response, negative = inhibition, actives largely listed as inhibitors. purified cruzain, Z-FR-AMC fluorescence, no detergent. 200,000 compounds, 2.3% hits; active means well fitted curve in the direction sought with a large enough effect; inconclusive means small, poorly fitted or top-dose-only effect, or another doubt; inactive means no such curve, though single readings can be large; an effect the other way counts as inactive or inconclusive;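 further: plate controls were enzyme without inhibitor for no effect and buffer without enzyme for full effect; nearly all actives have a fitted effect of over 40% in size; top concentration of the series not given in the record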
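Purified cruzain at 1.5 nM, pre-incubated 15 min with compound at room temperature in 100 mM sodium acetate pH 5.5, 5 mM DTT, 0.00005% Triton X-100. Reaction started with 2 uM Z-FR-AMC; AMC fluorescence increase over 60 s gives rate.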
RE007 growth inh: qHTS Assay for Inhibitors of the HIV-1 protein Vpr. S. pombe RE007 Vpr strain, BacTiter-Glo ATP luminescence, 24 h; control for the full effect not named in the record. Potency, µM (top dose mostly 92.2 µM), for the others: at the top dose activity change, negative = less growth. 360,000 compounds, 0.21% hits. AID 651644, 2012; active = well fitted falling curve with a large enough effect; inconclusive = small, poorly fitted or top-dose-only effect; inactive = no such curve, though single readings can be large or run the other way;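 further: on the % scale 0 is the no-effect control and ±100 the full control effect; nearly all actives have a fitted effect of over 50% in size; the assay follows cell death caused by Vpr and the record does not say whether a fall means rescue or toxicity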
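Fission yeast strain RE007, carrying one chromosomally integrated HIV-1 vpr copy, was seeded at OD 0.01 in PMG+AL medium with 23 nL pinned compound. After 24 h at 30 °C and 99% humidity, viability was read by BacTiter-Glo luminescence.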
Starred values were filed as active, the others as inactive; ? = inconclusive; . = not tested or not shown; & = joins results of further samples; [ ] = another dose, or the depositor's remark. Unless noted, the call rests on the fitted dose curve; in most records, active means well fitted rising curve with a large enough effect; inconclusive means small, poorly fitted or top-dose-only effect; inactive means no such curve, though single readings can be large or run the other way. Potency means the concentration at half of the fitted maximal effect.

Each structure is followed by: Marburg entry inh	NS1 function inh	Cruzain Triton	SARS PLP yeast	Lassa entry inh	2A StopGo	Cruzain noTriton	RE007 growth inh
[1] CN(C(=O)COC(=O)C12CC3CC(CC(C3)C1)C2)c1c(N)n(Cc2ccccc2)c(=O)[nH]c1=O
  ?	.	.	-4.7%	8.6%	-17.7%	.	4.2%
[2] COc1ccc(S(=O)(=O)NCC2CCCN(C(=O)c3cccnc3)C2)cc1 (stereo not given)
  ?	-1.0%	.	0.1%	.	13.0%	.	7.3%
[3] O=C(Nc1ccc(Br)cc1)c1ccc(N2C(=O)C3CC=C(Cl)CC3C2=O)cc1 (stereo not given)
  -30.8%	6.2%	-3.7%	-3.9%	-0.8%	?	20µM*	-14.4%
[4] O=C(N/N=C/c1ccc2c(c1)OCO2)c1cccs1
  ?	-24.4%	-7.2%	-25.8%	?	-2.0%	-6.1%	-15.9%
[5] C=CCc1ccc(OC(=O)c2ccccc2)c(OC)c1
  .	-4.1%	3.0%	-2.9%	.	38.2%&8.1%[activator]	-10.7%	6.4%
[6] CCOC(=O)c1c(C)nc(-c2ccccc2)nc1NC(=O)C(C)C
  -2.0%	-10.5%	-0.7%	.	-5.3%	11.3%	4.5%	-14.1%
[7] Cc1nn(C)cc1S(=O)(=O)N1CCN(c2ccccc2F)CC1
  ?	5.1%	.	-0.4%	-9.1%	9.8%	.	17.3%
[8] O=C(N/N=C/c1ccc2c(c1)OCO2)c1ccc(Cn2cc([N+](=O)[O-])cn2)o1
  ?	12.0%	-8.7%	10.7%	?	15.8%	-13.0%	11.0%
[9] COc1ccc(-c2noc(CCC(=O)NC3CCCCCC3)n2)cc1
  .	-14.2%	.	-5.8%	.	-9.7%	.	-7.3%
[10] Cc1cccc(N2C(=O)NC3(CCCCC3)C2=O)c1
  2.4%	-4.0%	1.0%	4.7%	6.6%	30.9%[activator]	-2.7%	1.8%
[11] O=C(Nc1cccnc1Cl)c1cc(-c2cccc(Cl)c2)on1
  ?	-2.9%	-1.1%	-1.9%	3.1%&8.5%[46.1 µM]	-11.4%&8.6%	-4.3%	-8.3%
[12] COc1ccccc1Cc1nc(-c2ccc(Br)o2)no1
  0.0%	-71.6%	-0.5%	-10.2%	.	33.3%[activator]	2.5%	1.1%
[13] O=C(N/N=C/c1ccsc1)c1cc(O)cc(O)c1
  4.2%	-1.9%	-1.1%	-3.2%	0.1%	28.7%	-2.9%	9.2%
[14] O=C(c1cc2nc(C3CC3)cc(C(F)F)n2n1)N1CCOCC1
  -1.3%	-11.3%	-2.4%	-2.1%	10.6%	22.3%	-3.8%	-13.9%
[15] COC(=O)CC1=C(C(=O)OC)C(c2cccs2)C(C#N)=C(N)O1 (stereo not given)
  3.4%[46.1 µM]	-3.9%	-1.4%	5.1%	-2.8%	0.0%	1.8%	-23.7%
[16] CCOc1cc(C(=O)Nc2ccc(-c3nc4cc(Cl)ccc4o3)cc2)cc(OCC)c1OCC
  .	.	-1.8%	.	22.5%[46.1 µM]	-5.5%	0.3%	.
[17] COc1ccc(OC)c(S(=O)(=O)NCc2ccc(N3CCN(C)CC3)cc2)c1
  8.8%	-5.4%	.	4.9%	0.0%	-1.8%	.	3.4%
[18] CC1=C(C(=O)OCc2ccccc2)C(c2cccnc2)n2nnnc2N1 (stereo not given)
  13.7%[46.1 µM]	3.7%	-1.4%	3.0%	-0.5%	-16.9%	2.8%	4.2%
[19] O=C(O)C1C2C=CC(C2)C1C(=O)Nc1cccc(Cl)c1 (stereo not given)
  .	2.1%	.	0.1%	.	-7.9%	.	14.3%
[20] COc1ccc(OC)c(NC(=O)C(=O)N/N=C/c2ccccc2[N+](=O)[O-])c1
  -0.6%	-0.7%	1.3%	4.3%	-15.5%	.	-20.0%	-7.1%
[21] Cc1ccc(C2C(C(=O)c3cc4ccccc4o3)=C(O)C(=O)N2CCN2CCOCC2)cc1 (stereo not given)
  .	0.1%	.	25.8%	.	-6.3%	.	10.9%
[22] CCOC(=O)COc1ccc(S(=O)(=O)c2ccc(OCC(=O)OCC)cc2)cc1
  30.0%	-37.1%	-11.9%	-1.3%	20.5%	.	6.6%	-16.0%
[23] CCN(CC)C(=O)CSc1nnc(-c2cccnc2)n1CCc1ccccc1
  -5.9%	-2.4%	3.4%	5.4%	1.2%	27.1%	5.6%	17.3%
[24] CC(Sc1nc2ccc(Br)cc2[nH]1)C(=O)O (stereo not given)
  6.9%	4.3%	0.9%	-1.3%	-21.0%	1.6%	2.2%	-1.7%
[25] O=C(CSCc1ccc(Cl)cc1)Nc1cccc(C(=O)O)c1
  ?	4.3%	.	-1.7%	?	39.2%[activator]	.	?
[26] CCCOC(=O)c1ccc(Oc2cn[nH]c2-c2ccc(OCC)cc2O)cc1
  ?	-165.7%	-3.0%	-18.3%	7.94µM*	?	-4.7%	?
[27] COc1ccc(C(=O)Nc2c(N)nc(SCC(=O)c3ccccc3)[nH]c2=O)cc1
  0.5%	12.5%	.	4.4%	-0.1%	-1.1%	.	-12.5%
[28] COc1cc(NC(=O)CC2C(=O)N(c3ccc(Cl)cc3)C(=O)N2Cc2cccs2)cc(OC)c1 (stereo not given)
  .	.	-8.4%	.	?	-17.8%	-9.1%	.
[29] Cc1ccc(Nc2c(-c3ccc(C)cc3)nc3ccc(C)cn23)cc1
  ?	.	0.6%	.	7.1%[46.1 µM]	16.9%	23.6%	.
[30] CCOCC(=O)Nc1cccc(-c2nc3cccnc3s2)c1C
  .	2.7%	.	-1.4%	.	-5.5%	.	-6.4%
[31] O=C(OCc1c(Cl)cccc1Cl)c1cnccn1
  19.2%	-39.8%	-1.2%	-4.1%	?	-2.7%	-1.2%	-4.1%
[32] CC(=O)c1ccc(N=c2scc(C)n2C(C)C)cc1
  0.2%[46.1 µM]	.	.	-3.5%	17.3%	0.0%	.	6.7%
[33] CCCSC1=C(C#N)C(c2ccc(Cl)cc2Cl)CC(=O)N1 (stereo not given)
  -14.7%	-8.9%	-3.5%	-0.4%	-24.8%	?	-6.3%	4.9%
[34] COC(=O)CSc1nnnn1-c1ccccc1
  ?	1.5%	6.5%	0.0%	-3.3%	-7.1%	9.1%	-1.7%
[35] COc1ccccc1NC(=S)NC(NC(=O)c1ccco1)C(Cl)(Cl)Cl (stereo not given)
  -7.8%	6.0%	-19.3%	27.1%	-12.0%	-1.2%	0.4%	2.4%
[36] COc1ccc(OCc2nc(N)nc(Nc3ccccc3OC)n2)cc1
  ?	-14.1%	2.9%	-5.0%	?	15.0%	4.0%	15.2%
[37] O=S(=O)(c1ccc(Br)cc1)c1nnn2c1nc(Nc1cccc(C(F)(F)F)c1)c1sccc12
  .	.	-0.4%	.	-17.9%[46.1 µM]	-12.0%	9.6%	.
[38] CC(Oc1ccc([N+](=O)[O-])cc1)C(=O)NCC1CCCO1 (stereo not given)
  .	19.6%	.	-0.4%	.	-1.8%	.	-14.0%
[39] O=C1COc2cc(S(=O)(=O)CCC(=O)N3CCN(c4ccccc4)CC3)c(Cl)cc2N1
  .	.	-1.1%	.	-17.9%[46.1 µM]	0.0%	-5.5%	.
[40] CCNC(=S)N/N=C/c1cccc(C)c1
  ?	-5.0%	-6.1%	-27.2%	?	5.6%	6.3%	-8.4%

Some of the entries so far, with bars between the fields:
nr | SMILES | Marburg entry inh | NS1 function inh | Cruzain Triton | SARS PLP yeast | Lassa entry inh | 2A StopGo | Cruzain noTriton | RE007 growth inh
39 | O=C1COc2cc(S(=O)(=O)CCC(=O)N3CCN(c4ccccc4)CC3)c(Cl)cc2N1 | . | . | -1.1% | . | -17.9%[46.1 µM] | 0.0% | -5.5% | .
36 | COc1ccc(OCc2nc(N)nc(Nc3ccccc3OC)n2)cc1 | ? | -14.1% | 2.9% | -5.0% | ? | 15.0% | 4.0% | 15.2%
38 | CC(Oc1ccc([N+](=O)[O-])cc1)C(=O)NCC1CCCO1 (stereo not given) | . | 19.6% | . | -0.4% | . | -1.8% | . | -14.0%

The list goes on:
Each structure is followed by: Marburg entry inh	NS1 function inh	Cruzain Triton	SARS PLP yeast	Lassa entry inh	2A StopGo	Cruzain noTriton	RE007 growth inh
[41] CCOc1ccc(C(=O)Oc2cc(C)[nH]c(=O)c2[N+](=O)[O-])cc1OCC
  .	-12.9%	.	-3.3%	.	6.6%	.	29.9%
[42] Cc1ccc2cc(C)c(SCC(=O)NCC3CCCO3)nc2c1 (stereo not given)
  ?	-11.3%	.	-6.1%	-20.4%	-9.6%	.	4.5%
[43] O=C(CSc1nc2ccccc2[nH]1)NCc1ccccc1
  .	13.0%	.	8.0%	.	3.2%	.	10.5%
[44] CCCN(CCC)CCCNC(=O)CN1C(=O)CSc2ccc(S(=O)(=O)N3CCOCC3)cc21
  -7.4%	.	.	-0.2%	0.5%	-0.6%	.	-3.1%
[45] O=C(O)CN1C(=O)c2ccc(C(=O)c3ccccc3)cc2C1=O
  .	3.2%	.	1.3%	.	-18.4%	.	0.0%
[46] CCCOc1ccc(C2NC(=S)NC(C)=C2C(=O)c2ccccc2)cc1OC (stereo not given)
  14.6µM*	9.5%	-9.6%	0.1%	-4.2%	-2.6%	-16.9%	-3.8%
[47] CCCn1nnnc1NCc1ccc(N(C)C)cc1
  -8.1%	3.5%	.	4.7%	-17.6%	13.4%	.	15.8%
[48] O=C(COC(=O)CCc1c[nH]c2ccccc12)NCc1ccccc1
  -3.5%	-6.9%	-1.7%	-16.1%	?	-13.1%	1.7%	-4.4%

Screens (PubChem BioAssay)
